YopH inh: inhibitors of Yersinia enterocolitica YopH tyrosine phosphatase. actives 0.16% (n = 140,000). inhibition, %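 (about 10 µM by stock and volumes)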. fluorescence Ex485/Em525. AID 898;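 active = inhibition of 50% or more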;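 also: controls were vehicle for no effect and minimum signal wells for full effect; inactives centre near -20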
RecA intein inh: blocks M. tuberculosis RecA intein splicing. P9WHJ3. cell-free RecA intein splicing, fluorescence. inhibition, %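 (about 9 µM by stock and volumes)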. actives 0.75% (n = 290,000); in the data active = inhibition above about 30%; inconclusive = no clear call, values can overlap the other calls;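 also: 0% = vehicle wells and 100% = reference inhibitor control wells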
Target sequence (P9WHJ3 whole entry, looked up): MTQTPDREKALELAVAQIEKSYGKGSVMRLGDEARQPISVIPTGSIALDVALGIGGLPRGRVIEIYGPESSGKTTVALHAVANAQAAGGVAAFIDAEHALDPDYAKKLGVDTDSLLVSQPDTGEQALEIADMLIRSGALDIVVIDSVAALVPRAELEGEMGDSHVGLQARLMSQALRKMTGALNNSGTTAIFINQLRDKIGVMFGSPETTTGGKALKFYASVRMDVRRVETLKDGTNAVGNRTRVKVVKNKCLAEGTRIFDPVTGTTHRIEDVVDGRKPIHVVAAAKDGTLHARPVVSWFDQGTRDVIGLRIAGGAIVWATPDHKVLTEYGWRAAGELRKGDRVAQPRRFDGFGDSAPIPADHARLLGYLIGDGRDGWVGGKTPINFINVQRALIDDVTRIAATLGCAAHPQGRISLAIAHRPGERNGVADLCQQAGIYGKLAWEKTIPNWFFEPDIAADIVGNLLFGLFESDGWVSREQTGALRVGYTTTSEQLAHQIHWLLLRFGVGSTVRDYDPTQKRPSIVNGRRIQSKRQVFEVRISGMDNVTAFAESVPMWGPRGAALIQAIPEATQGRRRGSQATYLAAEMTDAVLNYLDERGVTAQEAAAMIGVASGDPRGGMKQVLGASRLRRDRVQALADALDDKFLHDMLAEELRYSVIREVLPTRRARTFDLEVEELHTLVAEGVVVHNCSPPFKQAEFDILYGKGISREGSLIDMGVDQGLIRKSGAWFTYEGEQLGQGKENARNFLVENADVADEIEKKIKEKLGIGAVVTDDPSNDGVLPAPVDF
Arbovirus inh: blocks arbovirus infection. arbovirus infection cell-based antiviral screen. inhibition, % at 10 µM. actives 0.37% (n = 200,000);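 active = inhibition from about 30%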;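 also: bluetongue infection of BSR cells; cell survival read as ATP light after 72 h; 0% = infected wells without compound and 100% = uninfected wells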
Mtb betalactam: beta-lactam sensitization of Mtb H37Rv; M. tuberculosis H37Rv growth with meropenem, percent inhibition; hits of this screen are not shown here; inhibition, % at 25 µM; actives 0.27% (n = 330,000);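 active = about 74% or more and at least 40 points above the plate without the antibiotic, then above 30% in a dose series; inconclusive = first-round hits that could not be retested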;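 also: growth measured after seven days incubation then overnight dye step; 0% = bacteria only wells and 100% = bacteria with antibiotic; twin plates without the antibiotic show which effects depend on it; some results filed as inactive read as strong as hits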
Mtb H37Rv: M. tuberculosis H37Rv growth inhibitors, H37Rv strain (AID 1626); one-dose inhibition, % at 10 µM; IC50 in µM for titrated hits; actives 0.95% (n = 220,000); M. tuberculosis H37Rv growth inhibition; higher % means a stronger effect;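 active = confirmed in a dose series; inconclusive = inhibition above 80% but not taken into the dose series; inactive = below 80% or under 30% at every dose of the series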;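 also: bacteria incubated seven days before Alamar blue readout; 0% = bacteria only wells and 100% = bacteria with antibiotic wells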
Arbovirus inh repeat: further read-out of Arbovirus inh, marked with its call; inhibition, %; measured here: 10K subset replicate screen; many hits read low in the repeat;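 first of two repeat runs on a subset; 0% = infected and 100% = uninfected wells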
Active calls of the source: *; ? = inconclusive; nt = no result given.

SMILES	YopH inh	RecA intein inh	Arbovirus inh	Mtb betalactam	Mtb H37Rv	others
Cc1ccc2nc(SCc3nnc(-c4ccccc4[N+](=O)[O-])o3)c(C#N)cc2c1	-21	nt	-20	nt	0%
C/C(=N\NC(=O)c1cccc(S(=O)(=O)N2CCOCC2)c1)c1ccco1	nt	-0.4	nt	-8	-5%
CCCn1c(SCC(=O)c2ccc3c(c2)OCCO3)n[nH]c1=O	nt	2.0	20	0	1%
CSc1ccc(C2NC(=O)CCC2[N+](=O)[O-])cc1 (stereo not given)	nt	-3.5	nt	-1	nt
COc1ccc(CN(C)C(=O)c2cnc(OC)cc2C(F)(F)F)c(OC)c1	nt	2.3	nt	-3	-1%
Cc1ccccc1C(=O)Nc1ccc(Br)cn1	-29	0.6	-19	-1	10%
Cc1ccc(-n2c(=O)c3sccc3n(Cc3cc(=O)n4ccccc4n3)c2=O)cc1F	-12	-1.0	6	3	4%
COc1ccc(NC(=O)CCCc2nnc3n(C)c(=O)c4sccc4n23)cc1	nt	-0.9	nt	-7	nt
Cc1c(NS(=O)(=O)c2cccc(C(=O)OCC(=O)N(C)C3CCCCC3)c2)c(=O)n(-c2ccccc2)n1C	nt	1.8	18	-8	-5%
Cc1ccc(CNC(=O)C2CCN(S(=O)(=O)N3CCCCC3)CC2)cc1	nt	3.7	15	0	3%
Cc1cc(C)cc(C(=O)NC(CC(N)=O)c2ccc(N3CCC(N4CCCCC4)CC3)c([N+](=O)[O-])c2)c1 (stereo not given)	nt	-0.9	nt	-7	nt
Cn1c(CNC(=O)OC(C)(C)C)nnc1SCc1c(Cl)cccc1Cl	nt	2.0	nt	-12	-2%
CNC(=O)C(=O)NCCCN1CCOCC1	nt	-3.0	5	2	-3%
Cc1ccc2c(c1)cc(CN(CCc1ccccc1)C(=O)N1CCOCC1)c1nnnn12	-7	1.4	-3	-3	1%
Cc1nn(CC(=O)N/N=C/c2ccc(F)cc2)c(C)c1[N+](=O)[O-]	nt	-3.0	nt	-2	-1%
Cc1ccc(C)c(N2CCN(C(=O)c3ccc(CS(=O)(=O)c4ccccc4C)o3)CC2)c1	-10	14	-28	-22	1%
O=C(CN(C(=O)Cn1nnc(-c2cccs2)n1)c1ccc2c(c1)OCCO2)NC1CCCCC1	-44	-2.1	-2	8	0%
Cc1ccc(NC2=C(Cl)C(=O)N(C3CCCCC3)C2=O)cc1	-8	-3.5	6	0	3%
S=C(Nc1cccnc1)Nc1cccc2cnccc12	nt	-1.6	6	-8	3%
Cc1csc(SCC(=O)c2cc(C)n(Cc3cccs3)c2C)n1	-23	12	16	-7	0%

The closing six entries of the part before are carried over, then new ones follow:
SMILES	YopH inh	RecA intein inh	Arbovirus inh	Mtb betalactam	Mtb H37Rv	others
Cc1nn(CC(=O)N/N=C/c2ccc(F)cc2)c(C)c1[N+](=O)[O-]	nt	-3.0	nt	-2	-1%
Cc1ccc(C)c(N2CCN(C(=O)c3ccc(CS(=O)(=O)c4ccccc4C)o3)CC2)c1	-10	14	-28	-22	1%
O=C(CN(C(=O)Cn1nnc(-c2cccs2)n1)c1ccc2c(c1)OCCO2)NC1CCCCC1	-44	-2.1	-2	8	0%
Cc1ccc(NC2=C(Cl)C(=O)N(C3CCCCC3)C2=O)cc1	-8	-3.5	6	0	3%
S=C(Nc1cccnc1)Nc1cccc2cnccc12	nt	-1.6	6	-8	3%
Cc1csc(SCC(=O)c2cc(C)n(Cc3cccs3)c2C)n1	-23	12	16	-7	0%
Oc1cccc2ccc(/C=C/c3ccc(Br)s3)nc12	nt	3.1	2	?	2.6µM*
Nc1cc(N)nc(SCC(=O)c2ccccc2)n1	-24	nt	-3	-4	-2%
Cc1ccccc1NC(=O)C1C2/C=C\CCCCC21 (stereo not given)	-22	-1.0	-2	-3	-1%
C=CCN=C1SC(CC)C(=O)N1S(=O)(=O)c1ccc(C)cc1 (stereo not given)	-24	-0.1	-6	-12	-18%
COc1ccc(CNC(=O)c2ccc(CS(=O)Cc3ccc(Cl)cc3)o2)cc1 (stereo not given)	nt	-1.4	nt	-10	nt
CCN(CC(=O)Nc1c(F)cccc1F)C(=O)Cc1ccc(OC)c(S(=O)(=O)N2CCOCC2)c1	nt	-2.7	nt	-2	nt
CCN1CCN(C(c2cccs2)C(C)NC(=O)NC2CCCCC2)CC1 (stereo not given)	-29	-4.3	2	-6	-13%
CCOc1ccc(-c2nc(-c3ccc(OC)c(OC)c3)no2)cc1OCC	-20	nt	-4	nt	-1%
COCCCNc1nc2ccccc2nc1NS(=O)(=O)c1ccc(C)cc1C	nt	-1.0	nt	1	-5%
COc1ccc(-c2c(C(F)(F)F)[nH]n3c(=O)cc(-c4ccccc4)nc23)cc1	nt	-11	nt	-3	7%
Cc1ccccc1CN1CCC(n2nccc2NC(=O)CCCc2ccccc2)CC1	nt	-3.4	nt	-4	nt
CCOc1ccc(NS(=O)(=O)c2cnc(Cl)c(Cl)c2)cc1	-26	0.8	-3	74	21%
Cn1c(C(=O)NC2CCCCC2)cc2sccc21	-29	-3.5	7	2	2%
Cc1cccc(NC(=O)c2ccc3ccccc3n2)n1	-2	1.9	5	80	1%
COc1ccc(Nc2nc(NCc3ccco3)nc(N/N=C/c3ccccc3Cl)n2)cc1	-9	0.7	-10	41	24%
CN(C)S(=O)(=O)Oc1ccc(Cl)cc1C(=O)Nc1cccc(C(F)(F)F)c1	-18	nt	-1	-9	-8%
O=C(N/N=C/c1ccc(Br)s1)Nc1ccccc1	nt	-2.5	-2	7	8%
Cc1ccc(S(=O)(=O)N2CCC(=O)N(CCOCc3ccc(Cl)cc3)CC2)cc1	-10	2.6	4	-8	-12%
C=CCc1ccccc1OCC(=O)O	nt	-0.2	nt	2	4%
O=C(N/N=C/c1cccc([N+](=O)[O-])c1O)c1cccs1	-35	2.8	-18	53	44%
COc1cc(OC)cc(C(=O)NC2CC3CCC(C2)N3Cc2ccco2)c1 (stereo not given)	-26	-0.7	4	nt	4%
CC1=C(C(=O)OCCC(C)C)C(c2ccc3c(c2)OCO3)NC(=O)N1 (stereo not given)	nt	5.7	nt	0	nt
Cc1ccc(SCC2=NNC(=O)C2)cc1	-1	88*	3	0	-12%
COc1ccc(NC(=O)/C(=C\c2ccncc2)NC(=O)c2ccccc2)cc1	nt	-1.0	1	2	3%
CCOC(=O)c1cc(C#N)c(Nc2ccccc2OC)nc1C(F)(F)F	nt	0.3	nt	-3	-3%
CC(NCc1ccccc1O)c1ccccc1 (stereo not given)	nt	-1.0	13	4	4%
CN(C)c1ccc(N2C(=NC(=O)CC3CCCCC3)SC3CS(=O)(=O)CC32)cc1 (stereo not given)	nt	1.7	nt	1	nt
O=C(O)CCc1ccc(-c2ccccc2)n1NC(=O)c1cccs1	nt	-1.8	4	4	-4%
COCCCNC(=O)CC(NS(=O)(=O)c1ccc(OC)cc1)c1ccc(OC)cc1 (stereo not given)	1	5.2	7	-6	-4%
CCCN(CCC)CCNc1c(N2CCN(C(=O)OCC)CC2)c(=O)c1=O	1	-1.0	-1	nt	-1%
O=C(c1ccc(F)cc1)C1CCN(C(=O)Nc2ccc(F)cc2F)CC1	nt	-3.9	nt	-3	nt
O=C(NOC(=O)c1ccccc1Cl)c1cccs1	-24	-1.2	4	-13	-11%
CN(C)C(CNC(=O)C1CC(=O)N(Cc2ccccc2)C1)c1ccccc1 (stereo not given)	nt	1.6	nt	-2	nt
COc1ccc(NC(=O)CC(C(=O)O)N2CCCCC2)cc1 (stereo not given)	-24	-0.6	-2	-5	nt
CCOC(=O)CSc1nc2c(c(=O)[nH]c(=O)n2C)n1C/C=C(/C)Cl	-29	0.2	-1	?	-6%
Cc1ccc(N=C2NC(=O)C(CO)(CO)S2)cc1	nt	2.2	nt	6	nt
CCOC(=O)N1CCN(c2ncnc3scc(-c4ccccc4)c23)CC1	nt	9.0	nt	1	nt
CC1Cc2cc(/C(O)=C3/C(=O)C(=O)N(CCCn4ccnc4)C3c3cccc([N+](=O)[O-])c3)ccc2O1 (stereo not given)	nt	1.7	nt	-3	nt
COc1cc(C(=O)Nc2cccc(C)c2C)c(Br)c(OC)c1OC	nt	0.3	8	20	-1%
CC(C)CCN(CCC(C)C)C(=O)Cc1c(O)c2ccccc2[nH]c1=O	nt	-3.4	nt	19	-6%
CCNc1nc(NCC)nc(OCCOC(=O)c2ccccc2)n1	-29	-0.5	-1	-11	-8%
COc1ccc(OC)c(NC(=O)CSC2=C(C#N)C(c3ccco3)C3=C(CCCC3=O)N2)c1 (stereo not given)	-16	6.1	-2	nt	nt
CCCCn1nnc(NC(=O)c2ccco2)n1	-20	-1.6	1	-16	-21%
CCOC(=O)C1=C(CN2CCN(C(=O)c3ccco3)CC2)NC(=O)NC1c1ccc(Cl)cc1 (stereo not given)	nt	0.0	nt	-1	nt
COc1ccc(CN2CC(C(=O)NCCCOC(C)C)CC2=O)cc1 (stereo not given)	13	-2.5	-1	-13	-5%
Nc1cc(C(=O)c2ccccc2)ccc1[N+](=O)[O-]	nt	0.0	-2	-2	7%
Cn1c(=O)cc(C(=O)N/N=C/c2ccc(Cl)cc2)[nH]c1=O	nt	14	nt	-9	-3%
CCOC(=O)N1CCC(N2C(=O)c3ccc(C(=O)NCc4ccco4)cc3C2=O)CC1	-6	0.3	0	-3	0%
COc1ccc(/C=C/C(=O)O)cc1COc1cccc(C)c1	-34	0.8	3	3	-12%
CC(=O)Nc1cnn(Cc2ccc(Br)cc2)c1	7	4.8	0	3	-1%
Cc1ccccc1COCCN1CCN(S(=O)(=O)c2ccccc2)CCC1=O	nt	2.4	nt	-12	-4%
Cn1c(N)c(S(=O)(=O)N2CCN(c3cccc(Cl)c3)CC2)c(=O)n(C)c1=O	nt	-2.3	nt	3	nt
COc1ccc(/C=C/C(=O)OCC(=O)NCc2cccs2)cc1OC	-25	-1.0	-14	1	-3%
CC[C@H]1c2[nH]c3ccccc3c2C[C@H]2C(=O)N(c3ccc(F)cc3)C(=O)N21	nt	3.2	nt	-1	nt
N/C(=N\OC(=O)CCCc1ccccc1)c1ccccn1	-5	1.8	-3	1	11%
CCOc1ccc(C2/C(=C(\O)c3ccc4c(c3)OCCO4)C(=O)C(=O)N2CCCN2CCOCC2)cc1OC (stereo not given)	nt	-1.0	nt	-8	nt
COc1ccccc1NC(=O)CSc1nc2sc3c(c2c(=O)n1-c1ccccc1)CCN(C)C3	nt	2.5	nt	27	nt
CCS(=O)(=O)Nc1ccc(C2=NN(C(=O)c3ccco3)C(c3cccs3)C2)cc1 (stereo not given)	nt	-0.1	nt	17	nt
COC(=O)c1cn(-c2ccc(Cl)cc2)c(=O)c2ccccc12	-2	1.9	-1	1	9%
COc1ccc(OCc2cc(C(=O)NC(C)Cc3cccnc3)no2)c(Cl)c1 (stereo not given)	nt	0.7	nt	64	nt

Further compounds:
SMILES	YopH inh	RecA intein inh	Arbovirus inh	Mtb betalactam	Mtb H37Rv	others
CN(c1ccc(O)cc1)c1nc(-c2cccnc2)cs1	nt	1.6	nt	5	nt
CCc1cc2c(=O)c(-c3nc4ccccc4[nH]3)coc2cc1OC(=O)N1CCOCC1	-48	0.5	3	-2	-7%
CCCCc1ccc(NC(=O)Nc2cccnc2)cc1	nt	-5.1	nt	-7	nt
NC(=O)CN1C2CCC1CC(NC(=O)C1CC1)C2 (stereo not given)	-42	-1.7	2	3	-11%
O=C(O)Cn1nc(C(F)(F)F)c2c1CCCC2	nt	0.7	6	-12	0%
COc1cccc(CN2CCNC(=O)C2CC(=O)NCCn2nc(C)cc2C)c1OC (stereo not given)	nt	-4.9	nt	-9	-11%
O=C(CC12CC3CC(CC(C3)C1)C2)N1CCOCC1	-22	0.8	13	0	-8%	Arbovirus inh repeat=2
COc1cc2c(cc1OC)CN(C(=O)CNC(=O)c1ccc(OC(F)F)cc1)CC2	nt	-0.2	nt	-8	nt
CCN(CC)CCCN1C=C2C(=O)C(C)(OC(=O)C3CCCC3)C(=O)C(c3ccccc3)=C2C=C1CCCC(=O)OC (stereo not given)	nt	3.1	nt	-10	-8%
Fc1ccc(OCc2nn3cnnc3s2)cc1	-48	nt	0	-4	2%
CCn1c(SCc2nc3ccccc3s2)nc2cc(S(=O)(=O)N3CCOCC3)ccc21	nt	-0.3	nt	-4	nt
Cc1ccc(NS(=O)(=O)c2ccc(N3C(=O)CCC3=O)cc2)cc1	9	-3.2	10	5	-4%
CCN1CCN(c2ccc(NC(=O)c3cc(OC)c(OC)c(OC)c3)cc2)CC1	nt	-0.5	nt	-9	nt
CCOC(=O)c1ccc(NC(=O)CSc2nnc(CC)o2)cc1	nt	0.3	nt	68	nt
O=C(NCc1ccco1)c1ccc(OCC2CCCO2)cc1 (stereo not given)	-54	-1.3	-2	-11	-8%
Cc1cc(C)n(CC(O)COc2ccc(C(C)(C)C)cc2)n1 (stereo not given)	nt	-0.6	nt	9	nt

Screening data deposited in PubChem BioAssay by several laboratories.

Only part of the results is shown. The share of hits here may be higher or lower than overall.
